Screens: PubChem, National Center for Advancing Translational Sciences (NCATS)
Cruzain inh noDet – blocks cruzain activity in detergent-free assay. P25779. purified cruzain, Z-FR-AMC fluorescence, no detergent. Potency, µM, for the others: max response, negative = inhibition, most hits filed as inhibitors. 2.3% of 200,000 active. AID 1476;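 note: plate controls were enzyme without inhibitor for no effect and buffer without enzyme for full effect; nearly all actives have a fitted effect of over 40% in size; top concentration of the series not given in the record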
Target sequence (P25779 123-467 limits assumed): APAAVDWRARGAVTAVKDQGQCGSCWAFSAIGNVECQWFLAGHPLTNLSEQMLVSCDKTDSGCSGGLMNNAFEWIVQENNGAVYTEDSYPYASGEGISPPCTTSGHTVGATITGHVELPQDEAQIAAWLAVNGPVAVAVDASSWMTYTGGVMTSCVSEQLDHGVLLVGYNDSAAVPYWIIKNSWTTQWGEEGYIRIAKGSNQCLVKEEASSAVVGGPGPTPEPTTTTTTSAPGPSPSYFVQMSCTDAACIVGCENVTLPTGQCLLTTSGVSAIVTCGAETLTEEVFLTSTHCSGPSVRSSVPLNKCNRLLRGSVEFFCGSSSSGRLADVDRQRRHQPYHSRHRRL
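Detergent-free condition (0.00005% Triton X-100) in acetate buffer pH 5.5 with DTT. 1.5 nM enzyme and compound were pre-mixed 15 min, then 2 uM Z-FR-AMC substrate added; reaction progress from fluorescence change between first and third reads (60 s).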
Cruzain Triton – blocks cruzain activity in presence of Triton detergent. P25779. 0.43% of 200,000 active. Potency, µM, without a hit: max response, negative = inhibition, usual class: inhibitors. purified cruzain, Z-FR-AMC fluorescence, 0.01% Triton;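 note: plate controls were neutral wells for no effect and buffer without enzyme for full effect; nearly all actives have a fitted effect of over 40% in size; top concentration of the series not given in the record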
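Enzyme 1.5 nM, Z-FR-AMC 2 uM, NaOAc 100 mM pH 5.5, DTT 5 mM, Triton X-100 0.01%; 15 min RT compound preincubation; kinetic ex360/em450, 60 s delta.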
SARS PLP yeast – SARS-CoV PLP inhibition in yeast; S. cerevisiae expressing SARS-CoV PLpro, growth rescue; control for the full effect not named in the record; Potency, µM (highest dose often 32.9 µM), inactives show top-dose activity, positive = growth rescue; 0.19% of 330,000 active; AID 485353; active means well fitted rising curve with a large enough effect; inconclusive means small, poorly fitted or top-dose-only effect; inactive means no such curve, though single readings can be large or run the other way; note: 0% is about no effect; nearly all actives have a fitted effect of over 55% in size; growth read by luminescence after 48 h
MARV entry inh – inhibitors of Marburg virus binding or cell entry | Marburg virus pseudotyped entry inhibition, cell reporter; control for the full effect not named in the record; about a third of the inactives were read at about 46 µM | Potency, µM (titrated, usually from 37.8 µM), for inactives: at the top dose activity change, negative = inhibition, hits mostly inhibitors | 1.8% of 300,000 active; active = well fitted inhibition curve with a large enough effect; inconclusive = small, poorly fitted or top-dose-only effect, or effect the other way; inactive = flat fitted curve, though single readings scatter; tested in HEK293 cells; about a fifth of its hits are not listed in these tables; note: % is set by controls: 0 for no effect and ±100 for the full control effect; luciferase read-out
NS1 function inh – blocks influenza NS1 protein function; AID 2326; S. cerevisiae slowed by influenza A NS1, growth recovery by OD600; 0.4% of 270,000 active; Potency, µM (top dose mostly 46.1 µM), inactives show top-dose activity, positive = more growth; active means well fitted rising curve with a large enough effect; inconclusive means small, poorly fitted or top-dose-only effect; inactive means no such curve, though single readings can be large or run the other way; note: nearly all actives have a fitted effect of over 50% in size
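A cell-based growth assay was used: compounds that relieve NS1-induced slow growth of budding yeast raise OD600. Assay medium was yeast nitrogen base with ammonium sulphate and -URA supplement, pH 6.0, with 2% galactose.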
Lassa entry inh – inhibitors of Lassa virus binding or cell entry. Lassa virus pseudotype entry inhibition, cell reporter; control for the full effect not named in the record. Potency, µM (series often up to 37.9 µM), for the others: at the top dose activity change, negative = inhibition, most hits filed as inhibitors. 1.2% of 300,000 active. AID 540256; active means well fitted inhibition curve with a large enough effect; inconclusive means small, poorly fitted or top-dose-only effect, or effect the other way; inactive means flat fitted curve, though single readings scatter; tested in HEK293 cells; note: % is set by controls: 0 for no effect and ±100 for the full control effect; nearly all actives have a fitted effect of over 50% in size; luciferase read-out
2A StopGo – FMDV 2A StopGo reporter, luciferase signal; Potency, µM (top dose mostly 57.9 µM), inactives show at the top dose signal change, negative = less light; human cells with a luciferase reporter of 2A StopGo recoding; control for the full effect not named in the record; 1.2% of 410,000 active; active = well fitted falling curve with a large enough effect; inconclusive = small, poorly fitted or top-dose-only effect; inactive = no such curve, though single readings can be large or run the other way; tested in HEK293T cells; note: % is set by controls: 0 for no effect and ±100 for the full control effect; nearly all actives have a fitted effect of over 45% in size; luciferase light after 4 h
RE007 growth inh – less growth of the S. pombe RE007 Vpr strain. S. pombe RE007 Vpr strain, BacTiter-Glo ATP luminescence, 24 h; control for the full effect not named in the record. Potency, µM (series often up to 92.2 µM), for inactives: top-dose activity change, negative = less growth. 0.21% of 360,000 active; active = well fitted falling curve with a large enough effect; inconclusive = small, poorly fitted or top-dose-only effect; inactive = no such curve, though single readings can be large or run the other way;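 note: % is set by controls: 0 for no effect and ±100 for the full control effect; nearly all actives have a fitted effect of over 50% in size; the assay follows cell death caused by Vpr and the record does not say whether a fall means rescue or toxicity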
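Fission yeast strain RE007, carrying one chromosomally integrated HIV-1 vpr copy, was seeded at OD 0.01 in PMG+AL medium with 23 nL pinned compound. After 24 h at 30 °C and 99% humidity, viability was read by BacTiter-Glo luminescence.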
The depositor's hits bear a star; ? = inconclusive; / = not tested or not shown; & = joins results of further samples; [ ] = remark or other dose. Unless noted, calls come from the whole dose curve; as a rule, active = well fitted curve in the direction sought with a large enough effect; inconclusive = small, poorly fitted or top-dose-only effect, or another doubt; inactive = no such curve, though single readings can be large; an effect the other way counts as inactive or inconclusive. Potency is the fitted concentration of half-maximal effect.

SMILES	Cruzain inh noDet	Cruzain Triton	SARS PLP yeast	MARV entry inh	NS1 function inh	Lassa entry inh	2A StopGo	RE007 growth inh
COc1cc(C2CC(=O)Nc3cc4c(cc32)OCCO4)cc(Br)c1OC (stereo not drawn)	4%	-2.3%	/	/	/	?	-15%	/
CCOC(=O)c1cc(S(=O)(=O)N2CCN(C(=O)OCC)CC2)cn1C	1%	2.4%	-1%	8%	-8%	?	0%	0%
CCOC(=O)c1c(NC(=S)NC)sc2c1CC(C)(C)SC2	-24%	-26%	16%	1%[46.1 µM]	1%	12%[46.1 µM]	-17%	0%
Cc1nn(CC(=O)N(CC(C)C)C2CCS(=O)(=O)C2)c(C)c1[N+](=O)[O-] (stereo not drawn)	/	/	12%	3%	/	-6%	-8%	-19%
CC(C)C(CO)N1CCN(Cc2ccccc2)CCC1=O (stereo not drawn)	/	/	2%	/	3%	/	-21%	-2%
N#CCN1CCN(c2ccc(C(F)(F)F)cc2)CC1	3%	-0.6%	4%	9%	-2%	6%	-7%	?
O=C(Nc1ccc(S(=O)(=O)N2CCCC2)cc1)c1cccc(OC(F)F)c1	/	/	?	-5%	/	?	-21%	1%
Cc1c(C(=O)N/N=C/c2ccc(N(C)C)cc2)[nH]c2ccc(Cl)cc12	10µM*	-10%	14%	-23%	-2%	?	41%[activator]	6%
NC(=S)NN=C1C2CC3CC(C2)CC1C3	/	/	?	-20%[46.1 µM]	/	-15%[46.1 µM]	-2%	-9%
CCN(CC)C(=O)Oc1ccc2c(=O)c(-c3ccc(OC)cc3)c(C)oc2c1	7%	1.3%	4%	-26%	-101%	-16%[14.3 µM]	?	-5%
Cc1ccccc1-c1nsc(SCC(=O)NCc2ccc3c(c2)OCO3)n1	1%	-2.5%	-8%	0%	-3%	1%	-7%	-3%
CC1=Nc2cc(C(=O)NCC3CCCO3)ccc2Sc2ccc(C)cc21 (stereo not drawn)	/	/	0%	/	-3%	/	11%	-5%
Cc1cccc(C(=O)NCc2nnc(SCC(=O)NC3=NCCS3)n2C)c1	/	/	3%	13%[46.1 µM]	19%	/	0%	-16%
COc1cccc(C2/C(=C(/O)c3ccc4c(c3)CC(C)O4)C(=O)C(=O)N2c2nnc(C)s2)c1 (stereo not drawn)	/	/	8%	?	25%	14%[46.1 µM]	-6%	-3%
FC(F)(F)COc1nc(OCC(F)(F)F)nc(N2CCN(c3ccccc3)CC2)n1	8%	-10%	2%	-9%	4%	?	?	4%
COC(=O)c1ccc(NS(=O)(=O)c2ccc3c(c2)n(C)c(=O)c(=O)n3C)cc1	-2%	-1.5%	/	2%[46.1 µM]	/	11%[46.1 µM]	8%	/
CN(Cc1ccccc1)C(=O)c1[nH]cnc1C(=O)N[C@@H](CCCCNC(=O)OC(C)(C)C)C(=O)OC(C)(C)C	/	/	-1%	/	6%	/	-28%	-11%
CCCCC(=O)Nc1cccc(C(=O)N/N=C/c2ccc(OC)cc2OC)c1	-2%	-11%	-20%	17%	-15%	11%	-10%	-11%
Cc1cc(NC(=O)c2ccc3c(c2)C(=O)N(C(C)(C)C)C3=O)no1	/	/	-3%	?	/	0%[46.1 µM]	5%	-14%
Cc1ccc(SCC(=O)Nc2cc(C)on2)cc1	2%	3.6%	11%	18%	-13%	2%	19%	4%[3.69 µM]
Cc1cccc(OCc2nc(C#N)c(NCCN(C)C)o2)c1	3%	2.9%	9%	/	-6%	/	-14%	-6%
Nc1cc(-c2nn[nH]n2)ccc1F	-1%	2.0%	2%	-22%	3%	?	-19%	1%
C=Cc1ccc(Cn2nc(-c3ccccc3)ccc2=O)cc1	/	/	1%	/	-10%	/	4%	-13%
O=C1CCc2cc(S(=O)(=O)NCCC(=O)N3CCN(c4cccc(Cl)c4)CC3)ccc2N1	15%	-1.6%	-4%	-8%	-6%	?	16µM*	0%
CC(=O)Nc1ccc(S(=O)(=O)N2CCN(CC(=O)N3CCOCC3)CC2)cc1	/	/	1%	-1%	1%	5%	4%	10%
CCNS(=O)(=O)c1ccc(CCC(=O)NC2CCCC2)cc1	-7%	-2.4%	-8%	14%	-1%	?	10%	-3%
CCOC(=O)Cn1ccc(-c2ccccc2)c(C#N)c1=O	/	/	1%	38%[46.1 µM]	-1%	11%[46.1 µM]	24%	14%
CCn1c(CN2CCCCC2)nc2cc(NC(=O)c3ccccc3[N+](=O)[O-])ccc21	-15%	-16%	/	?	/	-22%[46.1 µM]	-9%	/
O=C(COCc1cc(-c2ccc(F)cc2)on1)Nc1cc(Cl)ccc1O	-2%	1.8%	/	3%[46.1 µM]	/	-10%[46.1 µM]	-20%	/
CC1(C)OC2C(CO)OC(n3cnc4c(=S)nc[nH]c43)C2O1 (stereo not drawn)	/	/	1%	?	2%	?	-19%	12%
On1c(-c2ccc(Cl)cc2)nc2ccccc21	/	/	-17%	-16%[46.1 µM]	/	12%	17%	?
C/C(=N\NC(=S)Nc1ccc(C(C)C)cc1)c1ccc2c(c1)OCO2	/	/	0%	0%	/	?	40%[activator]	-5%
COc1ccccc1OCCn1cc(C(=O)C(C)C)c2ccccc21	/	/	0%	2%[46.1 µM]	8%	26%[46.1 µM]	?	-24%
Cc1nn(-c2nc(-c3ccco3)cc(C(F)(F)F)n2)c(C)c1Br	-8%	-3.5%	14%	10%	3%	0%	-11%	0%
CCOc1ccc(-c2cc(C(=O)NCc3ccc(OC)cc3)c3c(-c4ccc(F)cc4)[nH]nc3n2)cc1	12%	2.4%	/	/	/	?	5%	/
CCC(C)(C)NC(=O)C1CCN(c2nc(C)cc(C)n2)CC1	8%	4.4%	2%	-14%	-5%	-1%	14%	1%
CCOC(=O)c1c(C)[nH]c(C)c1S(=O)(=O)N(C)CC(=O)N1CCN(c2ccccc2)CC1	16%	1.8%	/	/	/	6%[46.1 µM]	12%	/
COc1ccc(CNC(=O)C2CCCN(S(=O)(=O)c3ccc4c(c3)C(C)(C)C(=O)N4C)C2)cc1 (stereo not drawn)	/	/	2%	/	1%	/	-16%	4%
Cc1cc(OCC(=O)N(Cc2sccc2C)C2CCS(=O)(=O)C2)ccc1Cl (stereo not drawn)	?	-7.1%	/	?	/	?	-24%	/
CN(C(=O)c1ccc2c(c1)SC1=NS(=O)(=O)CCN12)C(c1ccccc1)c1ccccc1	?	-3.2%	5%	20%	6%	?	-12%	24%
Cc1cc(C)cc(NC(=O)CCCN2C(=O)C(c3ccccc3)Oc3cccnc32)c1 (stereo not drawn)	/	/	-4%	/	2%	/	?	5%
COC(=O)c1ccc(/C=C/C(=O)c2cccc(OC)c2)cc1	1%	-5.7%	15%	?	-9%	7%	14%	-21%
CSc1ncccc1C(=O)N1CCCC(C(=O)c2ccc3ccccc3c2)C1 (stereo not drawn)	/	/	0%	?	1%	11µM*	?	-14%
O=C(/C=C/c1ccccc1)c1ccc2c(c1)OCO2	/	/	-2%	/	-38%	/	0%	?
CCOc1cc(S(=O)(=O)NC2CCCCC2)ccc1F	5%	2.4%	-21%	21%	-145%	-1%	47%[activator]	4%
O=C(NCCCN1CCOCC1)c1ccc(NC(=O)C2COc3ccccc3O2)cc1 (stereo not drawn)	/	/	1%	-7%[46.1 µM]	0%	24%[46.1 µM]	-10%	-18%
CCn1c(SCC(=O)NC2CCS(=O)(=O)C2)nnc1-c1ccccc1 (stereo not drawn)	/	/	3%	-2%[46.1 µM]	/	-20%	-19%	14%
COC(=O)C1=C(Nc2ccc(C)cc2)C=C(C)C(C(=O)OC)C1c1ccc(F)cc1 (stereo not drawn)	-20%	-8.0%	-57%	?	-1%	-17%	?	-11%[3.69 µM]
COc1ccc(C(=O)NC(=S)Nc2ccc(S(=O)(=O)Nc3cc(C)on3)cc2)cc1OC	/	/	0%	7%[46.1 µM]	14%	-11%	38%[activator]	-13%
Cn1cccc1C(=O)NC(=O)COC(=O)CNS(=O)(=O)c1ccc(Br)cc1	-11%	-8.9%	-2%	?	1%	11%	-20%	5%
Cc1ccc(NC(=O)CN(C)C(=O)c2cc(C)on2)cc1	/	/	-2%	?	/	-2%	73%[activator]	27%
O=C(C1CCCN(S(=O)(=O)c2ccccc2[N+](=O)[O-])C1)N1CCN(c2ccccc2)CC1 (stereo not drawn)	5%	-3.3%	-11%	?	13%	-19%	?	23%
COc1ccc(CNS(=O)(=O)c2cc(-c3cc(C)no3)ccc2C)cc1OC	/	/	-2%	/	-9%	/	?	-5%
COc1cc(/C=C/c2ccc3cccc(O)c3n2)cc(Br)c1OC	/	/	-1%	?	13%	-14%	-27%	-6%
O=c1c2ccccc2c(/C=N/c2n[nH]c(CCCO)n2)c(O)n1-c1ccccc1Cl	/	/	1%	/	-6%	/	9%	-2%
CCC1(C)Cc2c(sc3nc(SCC(=O)O)[nH]c(=O)c23)CO1 (stereo not drawn)	6%	-0.5%	1%	13%	10%	-2%	/	-10%
COc1cc(-c2nc3cnccn3c2Nc2ccc(C)cc2)ccc1O	5%	-6.0%	0%	-10%	15%	?	-16%	-8%
CN(C)S(=O)(=O)c1cccc(NC(=S)N2CCCCC2CO)c1 (stereo not drawn)	/	/	1%	-4%[46.1 µM]	/	-6%[46.1 µM]	7%	1%
COc1ccc(C(=O)Nc2ccc3nc(N4CCCCC4)cc(C)c3c2)c(OC)c1	-8%&-8%	-1.1%&-9.3%	9%	11%[46.1 µM]	20%	-19%[46.1 µM]	-12%	/
CCC(=O)N1CCN(c2nnc(-c3ccccc3)c3ccccc23)CC1	/	/	2%	-2%	-4%	-7%	-11%	8%
O=C(CN1CCC(NC(=O)c2ccc(Br)cc2)CC1)NCc1cccs1	/	/	0%	/	1%	/	-21%	5%
CCCSc1nnc2n(-c3ccc(OC)cc3)c(=O)c3c4c(sc3n12)COC(C(C)C)C4 (stereo not drawn)	-5%	0.1%	/	4%[46.1 µM]	/	24%[46.1 µM]	-26%	/
